Assay outcomes deposited in PubChem by National Center for Advancing Translational Sciences (NCATS).
Sfp PPTase inh – inhibitors of Bacillus subtilis Sfp phosphopantetheinyl transferase; Q9F4F7; Biochemical Sfp PPTase activity, qHTS; Potency, µM, inactives show max response, negative = inhibition, most hits filed as inhibitors; 3.5% of 310,000 active; AID 1490; active = well fitted inhibition curve with a large enough effect; inconclusive = small, poorly fitted or top-dose-only effect, or another doubt; inactive = no such curve, though single readings can be large or run the other way;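 note: the enzyme is Sfp with the accession as filed and its product quenches rhodamine fluorescence; potency is the fitted concentration of half-maximal effect; 0% = enzyme reaction without inhibitor and -100% = no enzyme wells; top concentration of the series not given in the record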
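Fluorescence-quenching assay with 15 nM Sfp, 5 uM rhodamine-CoA and 12.5 uM BHQ-2-labelled ybbR peptide in pH 7.6 Hepes/MgCl2 buffer. Enzyme was pre-incubated with compound for 15 min at room temperature. Rate was taken from the 30-min fluorescence change (525/598 nm).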
Six1-Eya2 blk – Six1/Eya2 interaction inhibition; Q15475+O00167; AlphaScreen GST-Six1/His-Eya2 binding, biochemical; active compounds read low; control for the full effect not named in the record; activity change, % (test concentration not listed); 0.56% of 360,000 active; in the data active = activity change below about -65%; inconclusive = about -30% to -65%; inactive = above about -30%; note: % is set by controls: 0 for no effect and ±100 for the full control effect
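Compounds are tested against tagged Six1 and Eya2 proteins bridged by glutathione donor and nickel acceptor beads; after a one-hour incubation at 37 °C without light, AlphaScreen emission is recorded.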
D2 potentiator – positive allosteric modulators of human D2 dopamine receptor; AID 624464; potentiation, % (concentration not given with the values); DiscoveRx D2 beta-arrestin cells, luminescence, 90 min; 100% = 57 uM dopamine signal; 0.23% of 360,000 active; P14416; active = potentiation of 50% or more; inconclusive = 30% to 50%; inactive = 30% or less;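 note: compound concentration not given in the record; tested on top of an EC20 dose of dopamine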
Target sequence (P14416 whole entry, looked up): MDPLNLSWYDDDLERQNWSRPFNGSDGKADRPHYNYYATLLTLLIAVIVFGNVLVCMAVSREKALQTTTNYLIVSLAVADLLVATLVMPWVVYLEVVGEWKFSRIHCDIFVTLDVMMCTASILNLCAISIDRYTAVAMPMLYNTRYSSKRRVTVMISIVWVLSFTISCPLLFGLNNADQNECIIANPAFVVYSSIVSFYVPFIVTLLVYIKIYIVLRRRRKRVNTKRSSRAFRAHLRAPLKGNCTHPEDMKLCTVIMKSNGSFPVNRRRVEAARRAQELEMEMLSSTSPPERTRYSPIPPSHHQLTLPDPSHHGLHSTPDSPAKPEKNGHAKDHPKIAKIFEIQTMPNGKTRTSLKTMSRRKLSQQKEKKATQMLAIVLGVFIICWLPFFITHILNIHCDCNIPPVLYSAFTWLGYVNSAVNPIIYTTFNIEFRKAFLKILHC
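PathHunter beta-arrestin assay in DiscoveRx D2 cells. Compounds were added with an EC20 of dopamine (50 nM final) for 90 min at 37 deg C. Luminescence was read 1 h after detection reagent, with 57 uM dopamine as the EC100 control.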
CtBP-E1A inh – inhibitors of CtBP/E1A interaction; AlphaScreen GST-E1A/His-CtBP binding, 1536-well; active compounds read low; control for the full effect not named in the record; 0.49% of 340,000 active; activity change, % (concentration not given with the values); in the data active means activity change below about -65%; inconclusive means about -30% to -65%; inactive means above about -30%; note: % is set by controls: 0 for no effect and ±100 for the full control effect
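Protein mix (5X: 125 nM each GST-E1A, His-CtBP) was incubated with pinned compound 2 h at 37 deg C in dark, in 50 mM Tris pH 8.0 buffer with 300 mM NaCl. Glutathione donor and nickel acceptor beads followed; AlphaScreen signal read after 1 h.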
TRPV1 potentiator – enhances activation of the human vanilloid receptor TRPV1; TRPV1-expressing cells, Fluo-8 calcium influx, capsaicin EC20 potentiation; host cell line not named in the record; control for the full effect not named in the record; 0.02% of 320,000 active; potentiation, % at 8.33 µM; active means potentiation above 80%; inconclusive means 30% to 80%; inactive means below 30%; note: 0% is about no effect
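Cells expressing TRPV1 were dye-loaded with Fluo-8 and read kinetically: 10 s baseline, 3 min after compound (agonist portion), then 2 min after EC20 capsaicin (allosteric enhancer portion). Calcium-bound dye fluorescence at 480/520 nm.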
D2 agonist – agonists of human D2 dopamine receptor (beta-arrestin); activation, % (no concentration beside the values); P14416; DiscoveRx PathHunter D2 beta-arrestin, luminescence, 90 min; 100% = 57 uM dopamine signal; 0.084% of 360,000 active; in the data active = activation above about 40%; inconclusive = about 15% to 40%; inactive = below about 15%; note: compound concentration not given in the record; the text of the record calls up to 30% inactive
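DiscoveRx PathHunter D2 beta-arrestin cells (2,100/well) attached overnight, then compound-stimulated 90 min at 37 C in HBSS/10 mM HEPES/0.1% Tween-20 buffer; beta-galactosidase complementation read by luminescence after 1 h at ambient temperature. Dopamine 57 uM final (EC100) as control.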
PINK1 expr mod – modulators of PINK1 expression | PINK1 immunofluorescence, high-content cytometry, 24 h | Potency, µM (series often up to 76.6 µM), inactives show at the highest dose activation (PINK1 increase), usual class: activators | 0.2% of 410,000 active | AID 624263; active = well fitted activation curve with a large enough effect; inconclusive = small, poorly fitted or top-dose-only effect; inactive = flat fitted curve, though single readings scatter; cell line not stated here;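 note: potency is the fitted concentration of half-maximal effect; % of control where 0% means no effect; nearly all actives have a fitted effect of over 65% in size; a mitochondrial uncoupler was the plate control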
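Cells are seeded, rested 12 hours, then given compound at five concentrations or DMSO for 24 hours. After fixation, blocking and antibody staining, PINK1 amount and mitochondrial localization are scored; CCCP serves as control.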
* = called active by the depositor; ? = inconclusive; · = no result given; [ ] = remark or other dose.

| mol | Sfp PPTase inh | Six1-Eya2 blk | D2 potentiator | CtBP-E1A inh | TRPV1 potentiator | D2 agonist | PINK1 expr mod |
| --- | --- | --- | --- | --- | --- | --- | --- |
| COc1ccc(Cl)c(-c2cc(C(=O)NC(C)C)[nH]n2)c1 | · | -6 | -9 | -6 | · | -1.2 | -0.3% |
| O=C(/C=C/c1ccc(-c2cccc([N+](=O)[O-])c2)o1)N1CCOCC1 | ? | -22 | 4 | -6 | -5 | 5.4 | 0.0% |
| CCOC(=O)C1CCCN(S(=O)(=O)c2cc(OCC(N)=O)c(C)cc2Cl)C1 (centres undefined) | 19% | -3 | -4 | 9 | -11 | -4.5 | -0.5% |
| CCCn1c(CC)nc([N+](=O)[O-])c1Sc1ccc(C)cc1 | -3% | -2 | 2 | 5 | -2 | -2.6 | 0.8% |
| CC(C)(C)OC(=O)N[C@@H](Cc1ccccc1)c1nnc(SCC(N)=O)o1 | 10% | 1 | 1 | · | -2 | -4.2 | -0.7% |
| Cn1nnnc1SCc1nnc(-c2ccc(Cl)cc2)o1 | 13% | 5 | -23 | -5 | -2 | -0.4 | -0.7% |
| Cc1ccc(C2CC2C(=O)NNC(=S)Nc2cccc(C)c2)cc1 (centres undefined) | -1% | -7 | -19 | -2 | 27 | -6.2 | ? |
| O=C1CCCCCN1CSc1nc2ccccc2s1 | -5% | -6 | -6 | -1 | · | -3.8 | -1.0% |
| C=CCn1c(SCC(=O)N2CCCC2)nc2c([nH]c3ccccc32)c1=O | -8% | 5 | 3 | 3 | -4 | -0.3 | 2.2% |
| CCN(CC)S(=O)(=O)c1ccc2[nH]c(=O)cc(C(=O)Nc3ccc(C)cc3)c2c1 | 25% | -10 | 3 | 5 | -5 | 2.2 | 7.9% |
| CC(C)(C)C(C(=O)Oc1ccccc1)c1ccccc1 (centres undefined) | · | 13 | -21 | · | -4 | -5.9 | 11% |
| CCOc1ccc(CNC(=O)CCc2cn(Cc3ccccc3)c3ccccc23)cc1 | -9% | -9 | -2 | 0 | ? | 0.1 | 15% |
| O=c1oc(-c2ccc(O)c(O)c2)cc2cc(O)cc(O)c12 | · | -27 | 51* | ? | · | ? | -1.1% |
| O=C(Cc1ccc(Cl)cc1)NCC(=O)N1CCN(c2ccccc2)CC1 | 12% | -13 | 4 | -5 | 1 | -6.8 | 9.9% |
| CC(C)c1ccc(NC(=O)C2CCN(c3ncnc4c3nc3n4CCCCC3)CC2)cc1 | -11% | 2 | -5 | 6 | -16 | -0.9 | 8.4% |
| Cc1nnc2c3ccccc3ccn12 | · | 3 | -9 | -11 | · | 2.1 | 1.9% |
| CC1CN(Cc2nc3c(c(=O)n(C)c(=O)n3C)n2CC(O)CO)CC(C)O1 (centres undefined) | 14% | -1 | -14 | 4 | 12 | -3.5 | 0.6% |
| c1csc(-c2ccnc3ncnn23)c1 | 16% | -26 | -3 | ? | 10 | -0.4 | 1.0% |
| COc1ccc(CCNC(=O)CSc2nnc3ccc(-c4cccnc4)nn23)cc1 | 13% | -3 | -6 | -25 | 6 | 4.4 | 2.6% |
| CCOC(=O)/C(C#N)=C/c1c(N2CCN(c3ccccc3)CC2)nc2ccccn2c1=O | 0% | ? | -2 | -8 | 14 | -2.1 | -1.8% |
| Cc1ccc(S(=O)(=O)CCC(=O)Nc2nc(C(C)(C)C)cs2)cc1 | 21% | -1 | -13 | 3 | ? | 12 | 5.0% |
| CN1N=C(C(F)(F)F)CC1=O | 15% | 7 | -9 | 1 | 10 | -4.1 | 1.6% |
| COc1ccc(/C=C2\SC(=O)N(CC(=O)NC3C=CS(=O)(=O)C3)C2=O)cc1 (centres undefined) | ? | -5 | -3 | -11 | -6 | -4.6 | 0.5% |
| C/C(=N\NC(=O)c1nnn(-c2nonc2N)c1-c1ccc2c(c1)OCO2)c1ccc(C)cc1 | 15% | 0 | -4 | 7 | 21 | -0.6 | 4.6% |
| Cc1ccc(NC(=O)CN(C)C(=O)c2cc(-c3ccco3)nc3ccccc23)cc1 | · | -23 | -2 | -16 | 14 | 5.8 | 0.3% |
| Cc1[nH]c(C)c(S(=O)(=O)NCc2ccc(N(C)C)cc2)c1C(=O)N1CCCC1 | 9% | 8 | -5 | 1 | ? | -8.4 | -0.5% |
| CCN(CC(=O)Nc1ccc(OC)c(OC)c1)S(=O)(=O)c1ccc(C)cc1 | 4% | 1 | -4 | -5 | 4 | 1.7 | -3.3% |
| O=C(CN1CCN(c2ccccc2O)CC1)Nc1cc([N+](=O)[O-])ccc1Cl | 1% | -6 | -10 | · | -3 | -7.7 | 0.2% |
| CCOC(=O)Cc1csc(-n2sc3ccccc3c2=O)n1 | 6.3µM* | -12 | -4 | -5 | -11 | 0.0 | -2.3% |
| O=C(CC1C(=O)NCCN1Cc1ccccc1C(F)(F)F)NCCn1cccn1 (centres undefined) | -2% | 4 | -2 | 1 | -22 | 0.1 | 1.6% |

Reprinted at random: five records from the list, in no set order.
| mol | Sfp PPTase inh | Six1-Eya2 blk | D2 potentiator | CtBP-E1A inh | TRPV1 potentiator | D2 agonist | PINK1 expr mod |
| --- | --- | --- | --- | --- | --- | --- | --- |
| Cc1nnc2c3ccccc3ccn12 | · | 3 | -9 | -11 | · | 2.1 | 1.9% |
| Cn1nnnc1SCc1nnc(-c2ccc(Cl)cc2)o1 | 13% | 5 | -23 | -5 | -2 | -0.4 | -0.7% |
| CCOC(=O)Cc1csc(-n2sc3ccccc3c2=O)n1 | 6.3µM* | -12 | -4 | -5 | -11 | 0.0 | -2.3% |
| CN1N=C(C(F)(F)F)CC1=O | 15% | 7 | -9 | 1 | 10 | -4.1 | 1.6% |
| O=C1CCCCCN1CSc1nc2ccccc2s1 | -5% | -6 | -6 | -1 | · | -3.8 | -1.0% |

In a second layout: 3 of the compounds above
Values run as follows: Sfp PPTase inh | Six1-Eya2 blk | D2 potentiator | CtBP-E1A inh | TRPV1 potentiator | D2 agonist | PINK1 expr mod
CC(C)(C)OC(=O)N[C@@H](Cc1ccccc1)c1nnc(SCC(N)=O)o1
    10% | 1 | 1 | · | -2 | -4.2 | -0.7%
Cn1nnnc1SCc1nnc(-c2ccc(Cl)cc2)o1
    13% | 5 | -23 | -5 | -2 | -0.4 | -0.7%
Cc1ccc(C2CC2C(=O)NNC(=S)Nc2cccc(C)c2)cc1 (centres undefined)
    -1% | -7 | -19 | -2 | 27 | -6.2 | ?

(more compounds)
| mol | Sfp PPTase inh | Six1-Eya2 blk | D2 potentiator | CtBP-E1A inh | TRPV1 potentiator | D2 agonist | PINK1 expr mod |
| --- | --- | --- | --- | --- | --- | --- | --- |
| Cc1cc(C)c(C)c(S(=O)(=O)N2CCN(C(=O)c3ccccc3OCc3c(C)noc3C)CC2)c1C | · | -8 | -2 | 0 | -8 | 1.5 | -1.9% |
| Cc1[nH]c2ccccc2c1/C=N/Nc1ccc([N+](=O)[O-])cc1S(=O)(=O)Nc1ccc(Cl)cc1 | 4% | 2 | -14 | 16 | · | -1.9 | 6.8% |
| Cc1cccc(-n2c(SCC(=O)NCc3ccco3)nc3ccccc3c2=O)c1 | 14% | -6 | 1 | -6 | 9 | -2.6 | -0.9%[38.3 µM] |
| Cn1cccc1/C=N/NC(=O)Cc1cccc2ccccc12 | -10% | -2 | -5 | 2 | -7 | 2.8 | 5.7% |
| O=C(CN1C(=O)c2ccccc2S1(=O)=O)c1cccc(Br)c1 | 19% | 3 | 4 | -1 | 8 | -0.2 | 2.3% |
| Cc1ccc(CNC(=O)Cn2cnc3c(OCc4ccccc4)ncnc32)o1 | · | -2 | 0 | 1 | · | -6.2 | 9.7% |
| COc1ccc(CNC(=O)COC(=O)/C=C/c2ccc(Cl)cc2)cc1 | -3% | 16 | -7 | -5 | 13 | -3.7 | 1.3% |
| COc1cc(=O)oc(-c2ccccc2)c1C(C)=O | · | 53 | -8 | 0 | · | -5.7 | 0.9% |
| O=C(NC1CCCC1)C(c1ccc(N2CCOCC2)cc1)N(Cc1ccccc1)C(=O)c1ccco1 (centres undefined) | 17% | 12 | -19 | 1 | 17 | -1.7 | 0.9% |
| O=C(COc1ccccc1)Nc1ncn[nH]1 | ? | -21 | -12 | · | 12 | -3.7 | -0.3% |
| O=[N+]([O-])c1ccc(-c2ccc(S(=O)(=O)N3CCOCC3)cc2)cc1 | 15% | -7 | -5 | · | -17 | 4.0 | 6.2% |
| CCCCCOCC1CC(C/C(C)=N/NC(N)=O)(C(=O)OCC)C(=O)O1 (centres undefined) | 2% | 2 | -22 | · | 27 | -5.0 | 3.7% |
| Cc1ccc(C)c(NC(=O)CSc2nncn2C)c1 | 14% | 14 | -1 | · | 8 | -2.3 | -0.3% |
| O=C(Nc1ccc2ccccc2c1)c1ccc(Cl)cc1Cl | 8% | 7 | 10 | · | -18 | -10.0 | 4.2% |
| COc1ccc(NC(=O)NC2(C(=O)N3CCCCCC3)CCCCC2)cc1 | 3% | -18 | -6 | -10 | 9 | 0.0 | 0.2% |
| COc1ccc(-c2coc3c(C(=O)NCc4ccco4)cccc23)c(C)c1 | · | -25 | -7 | -13 | · | -1.3 | 12% |
| C=CCN(c1ccccc1)S(=O)(=O)c1cccc(C(=O)NCc2ccncc2)c1 | · | -1 | -28 | 9 | 9 | -3.0 | 2.1% |
| Cc1onc(-c2c(Cl)cccc2Cl)c1C(=O)c1c[nH]c(C(=O)NCC2CCCO2)c1 (centres undefined) | -13% | -4 | 16 | 0 | ? | 3.5 | -0.9% |
| CC(C)C(=O)N1CCN(c2ccccc2N)CC1 | 8% | -1 | -1 | -1 | · | -5.5 | -0.9% |

Ordered by length of the SMILES (largest number first): some entries from above.
| mol | Sfp PPTase inh | Six1-Eya2 blk | D2 potentiator | CtBP-E1A inh | TRPV1 potentiator | D2 agonist | PINK1 expr mod |
| --- | --- | --- | --- | --- | --- | --- | --- |
| O=C(NC1CCCC1)C(c1ccc(N2CCOCC2)cc1)N(Cc1ccccc1)C(=O)c1ccco1 (centres undefined) | 17% | 12 | -19 | 1 | 17 | -1.7 | 0.9% |
| C=CCN(c1ccccc1)S(=O)(=O)c1cccc(C(=O)NCc2ccncc2)c1 | · | -1 | -28 | 9 | 9 | -3.0 | 2.1% |
| COc1ccc(CNC(=O)COC(=O)/C=C/c2ccc(Cl)cc2)cc1 | -3% | 16 | -7 | -5 | 13 | -3.7 | 1.3% |
| O=C(CN1C(=O)c2ccccc2S1(=O)=O)c1cccc(Br)c1 | 19% | 3 | 4 | -1 | 8 | -0.2 | 2.3% |
